BJeLR viability – MLPCN primary cell-based screen for lethality selective to Ras in HRASV12 cells; BJeLR (HRASV12) viability, CellTiter-Glo ATP luminescence, 48 h; reference of the scale not given here; inhibition, % (test concentration not listed); 300,000 tested, 0.17% active;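 active means replicate mean above 50%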;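 further: 50 nL library stock added to about 25 µL; numbers are from one replicate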
ugtP null kill – growth inhibition of ugtP-null S. aureus, primary screen, RN4220 ugtP deletion, OD600. 16 h; some inactives read as strong as hits. growth inhibition, % (no concentration beside the values). 330,000 tested, 0.54% active. AID 1259309, 2017;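 active means z-score under -3 and OD600 up to 0.15 on both plates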;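 further: plate controls were untreated wells for no effect and antibiotic for full effect; wells of about 80 µL received 100 nL stock; the first replicate is given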
PrP UTR inh – inhibition of PrP 5' UTR reporter expression. 340,000 tested, 0.35% active. cell-based PrP 5' UTR mRNA reporter, plate reader. AID 488862, 2010. inhibition, % (no concentration beside the values);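 active means every replicate at 50% or more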;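 further: 0 = median of the neutral control wells; tested in H4 reporter cells; numbers are from one replicate; inactives centre near -14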
Sa RN4220 lethal – growth inhibition of S. aureus RN4220, primary screen, OD600; AID 1259311, 2017; inhibition, % (no concentration beside the values); 330,000 tested, 0.33% active; 16 h;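 active means z-score of -3 or lower and OD600 up to 0.18 on both plates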;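 further: plate controls were untreated cells for no effect and reference antibiotic for full effect; stock transfer was 100 nL into about 80 µL; one replicate is shown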
Bead autofluor – counter-screen for toxin protease inhibitors: compound fluorescence; compound autofluorescence counterscreen, microsphere flow cytometry; hits give high values; fluorescence intensity (no concentration beside the values); 360,000 tested, 3.1% active;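 active means at least 3 SD above the mean of all compounds, about 16000 in these data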;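 further: 100 nL of 1 mM stock went into each well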
Mtb hypoxia rep – PubChem AID 1159583; M. tuberculosis hypoxia-regulated fluorescent reporter, fluorescence; fluorescence inhibition, % (no concentration beside the values); 300,000 tested, 0.1% active;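 active means 35 to 45% if threefold the growth effect, above 45% if 1.5-fold the growth effect; inactive means the rest, general growth blockers included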;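 further: wells of about 50 µL received 100 nL stock; 0% = vehicle wells and 100% = reference inhibitor wells; whole bacteria with a GFP reporter of the hypoxia response; strong numbers were not always called active; many hits fall short of the cut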
Mtb hypoxia rep growth – further read-out of Mtb hypoxia rep, marked with its call; growth inhibition, %; measured here: M. tuberculosis growth (absorbance);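 0% = vehicle and 100% = reference antibiotic; read after six days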
* marks the source's active call; other numbers are inactive results; x = no result given.

No. | mol | BJeLR viability | ugtP null kill | PrP UTR inh | Sa RN4220 lethal
1 | O=C(Nc1nonc1-c1ccc(Cl)cc1)c1ccco1 | 9 | 0 | -19 | 8.0
2 | COc1cccc(/C=C/C(=O)Nc2ccccc2N2CCOCC2)c1 | 6 | 5 | -21 | 6.6
3 | CN(C)CCCNC(=O)/C=C/c1ccc(OCc2c(F)cccc2Cl)cc1 | 15 | -8 | -1 | -3.4
4 | CCN(Cc1ccccc1)S(=O)(=O)c1c[nH]c(C(=O)OC)c1 | -3 | 0 | -4 | 1.1
5 | CCN1/C(=C/c2ccc3cc(C)ccc3[n+]2CC)Sc2ccccc21 | x | 100* | 25 | 100*
6 | CCN(CC(=O)Nc1ccc2c(c1)OCCO2)C(=O)COc1ccc(C)cc1 | -6 | 9 | 5 | -1.0
7 | Cc1nc(SCC(=O)N2CCCCC2)c2c(C)c(C)sc2n1 | -17 | 15 | -26 | 3.1
8 | O=C(Cc1ncc(C(F)(F)F)cc1Cl)NC1CC1 | -10 | 2 | -13 | -0.5
9 | CC(/C=N/n1c(COc2ccccc2)n[nH]c1=S)=C\c1ccco1 | 5 | x | -75 | x
10 | CN(C(=O)CSc1nc2ccc([N+](=O)[O-])cc2s1)C1CCS(=O)(=O)C1 (stereo not given) | 3 | 7 | -24 | 14
11 | COCc1ccc(C(=O)NC2CCCc3c2cnn3-c2cc(C)cc(C)c2)s1 (stereo not given) | 1 | -1 | -26 | -0.2
12 | Cc1ccccc1COC(=O)CCC1=NS(=O)(=O)c2ccccc2N1 | 0 | 0 | -9 | 3.0

No. | Bead autofluor | Mtb hypoxia rep | Mtb hypoxia rep growth
1 | 5164 | 12 | 6
2 | 3891 | -4 | 9
3 | 3574 | 1 | 4
4 | 4297 | x | x
5 | 6257 | x | x
6 | 5525 | 2 | 4
7 | 3784 | 10 | 5
8 | 3466 | 9 | -4
9 | 4019 | x | x
10 | 4872 | 3 | 11
11 | 5616 | -3 | 8
12 | 6137 | 1 | 8

No. | mol | BJeLR viability | ugtP null kill | PrP UTR inh | Sa RN4220 lethal
13 | CCOC(=O)C1CCN(C(=O)Cn2cc(C(=O)OC)c3ccccc32)CC1 | 5 | -5 | -21 | 7.7
14 | O=[N+]([O-])c1ccc(C(=S)N2CCN(Cc3ccccc3)CC2)cc1 | 5 | -3 | -13 | -13
15 | FC(F)(F)c1cnc(-c2cnc(-c3cccnc3)nc2)c(Cl)c1 | 5 | 5 | -10 | -1.2
16 | Cc1oc2c(cc(NS(=O)(=O)c3ccc4c5c(cccc35)C(=O)N4)c3ccccc32)c1C(=O)OC(C)C | x | 8 | -14 | 0.9
17 | COc1ccccc1NS(=O)(=O)c1cc([N+](=O)[O-])ccc1NN=Cc1c(C)[nH]c2ccccc12 | x | 3 | x | 18
18 | COCCCN1CCN(C2Cc3ccccc3Sc3ccc(Cl)cc32)CC1 (stereo not given) | 0 | -3 | -26 | -1.5
19 | CCCn1c(SCC(=O)Nc2cccc(S(=O)(=O)N(C)C)c2)nc2ccccc2c1=O | -17 | 4 | -12 | 2.1
20 | O=C(Nc1c(-c2ccc(F)cc2)nc2ccccn12)c1ccc(F)cc1 | 12 | 7 | -12 | 2.4
21 | Cc1cc(C(=O)Nc2ccccc2C(=O)O)ccc1NC(=O)COc1ccccc1Cl | -5 | -5 | -17 | 7.9
22 | COc1ccc(OC)c(NC(=O)CCN2CCN(C)CC2)c1 | 2 | 6 | -17 | 4.3
23 | CCc1ccccc1NC(=O)NC(C(=O)O)C(C)CC (stereo not given) | x | 7 | x | 2.4
24 | CN(C(=O)Cn1nc(Cl)ccc1=O)C1CCCN(Cc2ccccc2F)C1 (stereo not given) | -2 | 3 | 2 | 0.8

No. | Bead autofluor | Mtb hypoxia rep | Mtb hypoxia rep growth
13 | 3851 | -2 | 3
14 | 2343 | 7 | 5
15 | 4483 | 8 | 5
16 | 19667* | 5 | 7
17 | x | 4 | 0
18 | 11375 | 7 | 20
19 | 4786 | 12 | -1
20 | 3841 | -1 | 5
21 | 6141 | 4 | 8
22 | 3467 | 4 | 10
23 | x | 13 | 17
24 | x | 6 | 0

Next part; it opens with the 4 that closed the last part.
No. | mol | BJeLR viability | ugtP null kill | PrP UTR inh | Sa RN4220 lethal
21 | Cc1cc(C(=O)Nc2ccccc2C(=O)O)ccc1NC(=O)COc1ccccc1Cl | -5 | -5 | -17 | 7.9
22 | COc1ccc(OC)c(NC(=O)CCN2CCN(C)CC2)c1 | 2 | 6 | -17 | 4.3
23 | CCc1ccccc1NC(=O)NC(C(=O)O)C(C)CC (stereo not given) | x | 7 | x | 2.4
24 | CN(C(=O)Cn1nc(Cl)ccc1=O)C1CCCN(Cc2ccccc2F)C1 (stereo not given) | -2 | 3 | 2 | 0.8
25 | CCOc1ccc(OCC(=O)OCC(=O)Nc2ccc3[nH]c(=O)[nH]c3c2)cc1 | x | 2 | -4 | 1.7
26 | Cc1ccccc1NS(=O)(=O)c1ccc(C(=O)N(C)CC(=O)Nc2ccccc2Br)cc1 | x | 5 | -13 | 4.7
27 | N#Cc1cccc(NC(=O)c2nc(-c3ccccc3)n(-c3ccccc3)n2)c1 | 0 | 8 | -12 | 4.7
28 | CC(OC(=O)c1ccc(-n2cnnn2)cc1)C(=O)Nc1ccccc1F (stereo not given) | x | 0 | -13 | -1.1
29 | O=C1CCN(Cc2ccccc2)C(=O)N1 | x | 2 | -34 | 1.3
30 | O=C(Cc1csc(Nc2nc(=S)[nH]c3ccccc23)n1)NCCCN1CCN(c2ccccc2F)CC1 | -8 | -1 | -86 | -0.3
31 | CCCn1nc2cc(C(=O)NCCCCc3ccccc3)ccc2c1OCC | 10 | 10 | -28 | 10
32 | CC1CCN(S(=O)(=O)c2ccc(C(=O)N3CCCCC3C(=O)O)cc2)CC1 (stereo not given) | x | 6 | -18 | 0.8
33 | COC(=O)c1ccc(N2CCOCC2)c(F)c1 | -1 | 8 | 9 | 7.1
34 | O=C(N/N=C/c1c(F)cccc1Cl)C1CC1 | 5 | x | -24 | x
35 | CCN(CC)C(c1ccc(F)cc1)c1nnnn1CC1CCCO1 (stereo not given) | 6 | 1 | -13 | 5.0
36 | CS(=O)(=O)N(CC(=O)N1CCCC1)Cc1ccc(Cl)c(Cl)c1 | 2 | 4 | -23 | 7.9

No. | Bead autofluor | Mtb hypoxia rep | Mtb hypoxia rep growth
21 | 6141 | 4 | 8
22 | 3467 | 4 | 10
23 | x | 13 | 17
24 | x | 6 | 0
25 | 5820 | 1 | -1
26 | x | 4 | -1
27 | 4126 | x | x
28 | 4327 | 5 | 27
29 | 4182 | 13 | 13
30 | 3532 | -4 | 3
31 | 4076 | 20 | 8
32 | 6448 | 9 | 7
33 | 2380 | 7 | 4
34 | 3434 | x | x
35 | 4097 | 2 | 10
36 | 3759 | 2 | 4

No. | mol | BJeLR viability | ugtP null kill | PrP UTR inh | Sa RN4220 lethal
37 | CCOC(=O)C1=C(COC(=O)c2ccco2)NC(=O)NC1CC (stereo not given) | x | 0 | -2 | 0.6
38 | CCc1nnc(NC(=O)CSc2ccc(-c3ccccc3OC)nn2)s1 | -1 | 0 | -20 | -2.0
39 | O=C(Oc1cccc2cccnc12)c1ccc(N2C(=O)C3C4CCC(C4)C3C2=O)cc1 (stereo not given) | -2 | 11 | -30 | 15
40 | COc1cccc(OC)c1C(=O)Nc1ccc(N2CCN(S(C)(=O)=O)CC2)cc1 | 1 | 3 | -18 | 2.6
41 | Cc1nnc2sc(-c3ccco3)nn12 | -1 | 7 | -1 | 2.6
42 | CC1=CC(C)(C)N(S(=O)(=O)c2ccc(F)cc2)c2ccccc21 | -1 | -2 | -24 | 12
43 | C=CCN=c1scc(-c2ccccc2)n1N=Cc1ccccn1 | x | 10 | x | 13
44 | COc1ccc(C=NNc2ccccc2[N+](=O)[O-])c(C(=O)O)c1OC | x | 6 | x | 4.0
45 | Cc1cc(-c2ccccc2)nc2cc(C(N)=O)nn12 | 1 | 1 | 9 | -4.4
46 | COc1cc(Cl)c(C)cc1NC(=O)COC(=O)c1cnc(C)cn1 | -4 | -7 | -5 | -5.9
47 | CC(CNC(=S)Nc1cc(F)cc(F)c1)CSc1ccc(Cl)cc1 (stereo not given) | 2 | 5 | 1 | 11
48 | O=C(C[n+]1cc(Br)cc(Br)c1)c1ccccc1 | -4 | 10 | -9 | -0.9

No. | Bead autofluor | Mtb hypoxia rep | Mtb hypoxia rep growth
37 | 3887 | -7 | 6
38 | 3747 | -14 | 0
39 | 1936 | -1 | -1
40 | 9294 | -4 | -2
41 | 20829* | 1 | -5
42 | 10725 | 17 | 9
43 | x | 18 | 14
44 | x | 26 | 11
45 | 4842 | x | x
46 | 2629 | 5 | 14
47 | 3601 | 6 | -8
48 | 3067 | 14 | 6

No. | mol | BJeLR viability | ugtP null kill | PrP UTR inh | Sa RN4220 lethal
49 | O=C(CNc1ccc2ccccc2c1)NN=Cc1ccncc1 | x | -3 | x | 2.5
50 | COC(=O)C(c1ccccc1)N(C)S(=O)(=O)c1cccc(S(=O)(=O)N(C)C(C(=O)OC)c2ccccc2)c1 (stereo not given) | x | 7 | x | 2.6
51 | CNC(=S)Nc1ccc([N+](=O)[O-])cc1 | -1 | -9 | -19 | 1.4
52 | CCCNC(=O)Nc1cc(C)on1 | 0 | 9 | 0 | 14
53 | CCN(CC)S(=O)(=O)c1ccc(Cl)c(NC(=O)CSc2nnc(-c3cccs3)o2)c1 | 2 | -1 | -16 | 3.1
54 | O=C(Nn1c(C2CCC2)nc2ccccc2c1=O)c1cccs1 | 7 | 12 | -27 | 7.4
55 | CC(=O)Nc1ccc(N/C(=N\S(=O)(=O)c2ccccc2)c2ccccc2)cc1 | -7 | x | -4 | x
56 | c1ccc(-c2nnc(SCCC3OCCCO3)o2)cc1 | -7 | 6 | -63 | 4.9
57 | COc1ccc(-n2nc(C(=O)Nc3ccc4c(c3)OCO4)c3ccccc3c2=O)cc1 | -9 | 0 | 5 | 10
58 | O=C(O)c1ccc(C(=O)Nc2cccc3ccccc23)c(C(=O)O)c1 | -3 | 1 | -1 | 0.9
59 | O=C(NCc1ccco1)c1ccc(COCC(F)(F)C(F)F)cc1 | -4 | 4 | -2 | 6.1
60 | On1c(-c2ccco2)nc2c1CCc1nonc1-2 | -6 | 3 | -20 | 3.5

No. | Bead autofluor | Mtb hypoxia rep | Mtb hypoxia rep growth
49 | x | -18 | -9
50 | x | 2 | 5
51 | 3246 | 3 | 3
52 | 3480 | x | x
53 | 6304 | 3 | 0
54 | 4627 | 9 | 2
55 | 6019 | x | x
56 | 4456 | x | x
57 | 2098 | x | x
58 | 3372 | 9 | -2
59 | 4609 | -1 | 2
60 | 3560 | 6 | 10

No. | mol | BJeLR viability | ugtP null kill | PrP UTR inh | Sa RN4220 lethal
61 | COc1cccc(C(=O)NN=C/C(Br)=C/c2ccccc2)c1 | x | -8 | x | 2.9
62 | COc1ccc(CC(=O)Nc2ccc(OC)nc2)cc1 | 2 | 6 | -11 | -0.1
63 | CC1CN(C(C)CO)C(=O)c2cc(NC(=O)Cn3cnnn3)ccc2OC1CN(C)C(=O)Nc1ccc(C(F)(F)F)cc1 (stereo not given) | x | -1 | x | 3.8
64 | CCN1C(=O)[C@H]2[C@H]3CN=C(SCc4ccc(C(=O)OC)cc4)N3[C@@](CC)(C(=O)OC)[C@H]2C1=O | x | 3 | -11 | 3.2
65 | Cc1ccccc1OCc1nc(C#N)c(N2CCCC2)o1 | -3 | 9 | -11 | 3.9
66 | O=c1cc(-c2ccc(O)cc2)oc2cc(O)c(C3OC(CO)C(O)C(O)C3O)c(O)c12 (stereo not given) | 1 | 3 | -4 | 1.1
67 | O=C(COC(=O)c1cccc(Br)c1)NCC1CCCO1 (stereo not given) | x | 3 | -13 | 4.2
68 | COc1cccc(C(=O)NCCS(=O)(=O)N2CCOCC2)c1 | 6 | x | -6 | x
69 | COc1ccc(NC(=O)c2cc3ccc(O)cc3oc2=NO)cc1 | x | 0 | x | 2.1

No. | Bead autofluor | Mtb hypoxia rep | Mtb hypoxia rep growth
61 | x | 9 | 5
62 | 3635 | 7 | 12
63 | x | 4 | 2
64 | 3177 | -3 | 2
65 | 4232 | 12 | 12
66 | 4161 | x | x
67 | 3855 | 15 | 11
68 | 5866 | x | x
69 | x | -4 | 8

Single entries from above.
Mtb hypoxia rep growth, `O=C(COC(=O)c1cccc(Br)c1)NCC1CCCO1` (stereo not given) : 11
Mtb hypoxia rep growth, `CC1CN(C(C)CO)C(=O)c2cc(NC(=O)Cn3cnnn3)ccc2OC1CN(C)C(=O)Nc1ccc(C(F)(F)F)cc1` (stereo not given) : 2
ugtP null kill, `COc1cccc(C(=O)NN=C/C(Br)=C/c2ccccc2)c1` : -8

Source: PubChem
